High-throughput results from PubChem.
KCNQ2 block = KCNQ2 potassium channel inhibitors, primary screen, cell-based, CHO-K1, FluxOR thallium flux, B-score (AID 2156). O88943. 20 min; stronger effect = lower value; only compounds with negative scores are shown here; some inactives read as strong as hits. B-score at 10 µM. 1.1% of 310,000 active;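 active = fluorescence ratio B-score at most minus 3 library SDs, with starting brightness B-score within 2 library SDs, cut at about -5.5 in these data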
Target sequence (O88943 whole entry, looked up): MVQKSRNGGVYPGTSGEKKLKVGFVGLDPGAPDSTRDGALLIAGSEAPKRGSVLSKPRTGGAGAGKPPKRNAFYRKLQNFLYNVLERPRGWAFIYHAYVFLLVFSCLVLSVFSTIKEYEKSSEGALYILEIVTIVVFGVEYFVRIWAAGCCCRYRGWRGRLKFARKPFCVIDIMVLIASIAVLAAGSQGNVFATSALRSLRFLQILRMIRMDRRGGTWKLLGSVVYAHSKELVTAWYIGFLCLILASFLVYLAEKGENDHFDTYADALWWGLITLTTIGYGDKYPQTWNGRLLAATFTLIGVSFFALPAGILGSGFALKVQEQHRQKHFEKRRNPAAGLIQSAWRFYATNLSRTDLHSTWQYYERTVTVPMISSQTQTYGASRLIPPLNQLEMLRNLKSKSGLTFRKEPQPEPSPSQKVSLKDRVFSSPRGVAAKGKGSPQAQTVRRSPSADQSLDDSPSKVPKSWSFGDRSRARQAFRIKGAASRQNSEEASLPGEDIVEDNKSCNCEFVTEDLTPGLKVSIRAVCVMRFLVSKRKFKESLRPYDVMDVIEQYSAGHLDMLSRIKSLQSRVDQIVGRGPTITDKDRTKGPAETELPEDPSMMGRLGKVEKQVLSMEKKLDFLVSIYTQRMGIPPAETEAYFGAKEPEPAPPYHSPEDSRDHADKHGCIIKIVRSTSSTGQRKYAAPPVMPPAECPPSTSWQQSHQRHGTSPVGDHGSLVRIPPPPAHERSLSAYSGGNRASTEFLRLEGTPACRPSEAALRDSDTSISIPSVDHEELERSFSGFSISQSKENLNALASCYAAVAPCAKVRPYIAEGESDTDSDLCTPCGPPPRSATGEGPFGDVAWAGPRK
KCNQ2 block baseline = recorded beside KCNQ2 block, whose call it bears; B-score; measured here: initial fluorescence intensity artifact check;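 brightness before thallium and not channel activity; 0 = typical well and far values either way flag optical interference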
Numbers without * were called inactive; i = inactive.

SMILES,KCNQ2 block,KCNQ2 block baseline
Cc1noc(C)c1CSc1ccccc1C(=O)OC(C)C(N)=O (stereo unspecified),i,-0.09
N#C/C(=C\c1cc(Cl)ccc1O)C(=O)NC1CCCCC1,i,1.2
Cc1ccc(Cl)cc1N(CC(=O)NC1CCCCC1)S(C)(=O)=O,i,0.18
CN1CCN(c2ccccc2NC(=O)c2ccc(N3CCCCC3)c([N+](=O)[O-])c2)CC1,i,-0.33
COc1cc(OC)cc(C(=O)NC(C(=O)N2CCc3ccccc3C2)C(C)C)c1 (stereo unspecified),i,-0.05
Cc1nc(N(C)C)c2sc(=S)n(Cc3ccccc3)c2n1,i,2.7
COc1ccc(OCC2CCNCC2)cc1,i,-0.01
Cc1cc(C(=O)N2CCN(c3ccc([N+](=O)[O-])cc3)CC2)n[nH]1,i,0.03

More entries.
SMILES,KCNQ2 block,KCNQ2 block baseline
Cc1cc(OCC(=O)NCCCN(C)C)cc(C)c1Br,i,-1.6
S=c1[nH]nc(Cc2ccc(Cl)cc2)n1-c1ccc2c(c1)OCCO2,i,-0.79
Cc1ccc(OCC(=O)Nc2cccc(C)n2)c(C)c1,i,-0.37
O=C(c1cnn2c(C(F)F)cc(C3CC3)nc12)N1CCc2ccccc2C1,i,-0.01
Cc1cccc2[nH]c(SCC(=O)O)nc12,i,-0.37
COc1cc(/C=C/c2cc[n+](C)cc2)ccc1OCC(=O)Nc1ccc(Cl)c(Cl)c1,i,-1.7
Cc1cc(C)cc(OCC(=O)NNC(=S)NC(=O)C2CC2)c1,i,0.82
O=C(O)c1cccnc1Sc1ccc(Br)cc1,i,-0.39

(listing goes on)
SMILES,KCNQ2 block,KCNQ2 block baseline
COC(=O)/C(C#N)=C/c1ccc(OC(=O)c2ccccn2)cc1,i,-3
COc1ccc(N=Nc2cc(C)ccc2O)cc1,i,0.31
Cc1ccc(NC(=O)N2N=C(c3ccc(F)cc3)CC2c2ccc(F)cc2)cc1 (stereo unspecified),-7.9*,-0.73*
O=C(Nc1ccccc1F)c1ccc(CN2CCc3ccccc3C2)cc1,i,1.8
O=C(NCc1cccs1)C1CCCN1C(=O)Nc1ccccc1[N+](=O)[O-] (stereo unspecified),i,0.01
O=C(NCC1CCCC(CNC(=O)N2CCc3ccccc32)C1)N1CCc2ccccc21 (stereo unspecified),-5.8*,3.1*
CC(C)NC(=S)NN=C1CCC(c2ccccc2)CC1 (stereo unspecified),i,-0.48
Cc1nn(CCC#N)c(NC(=O)c2ccccc2)c1P(=O)(Nc1ccc(Br)cc1)N1CCOCC1 (stereo unspecified),i,-0.15

Single records (already shown). Order of screens: KCNQ2 block	KCNQ2 block baseline
Shown for `COc1ccc(N=Nc2cc(C)ccc2O)cc1` : i	0.31
Shown for `O=C(Nc1ccccc1F)c1ccc(CN2CCc3ccccc3C2)cc1` : i	1.8

(list continues)
SMILES,KCNQ2 block,KCNQ2 block baseline
CCc1ccc(NC(=O)CN(CC(=O)Nc2ccc(CC)cc2)CC(C)O)cc1 (stereo unspecified),i,-1.1
S=C(Nc1ccc(Cl)cc1)NC1CC2CCC(C1)N2Cc1ccccc1 (stereo unspecified),i,0.51
Cc1ccc(C(=O)CSc2cc(C)nc(SCC(=O)c3ccccc3)n2)cc1,i,0.17
CCCOc1ccc(C(C)=O)cc1CC(C(N)=O)C(N)=O,i,1.4
N/C(=N\OC(=O)COc1ccccc1)c1ccncc1,i,-0.06
COc1ccc(N(CC(=O)NCCC2=CCCCC2)S(=O)(=O)c2ccccc2F)cc1,i,-0.16
Cc1ccc(C(C)C)c(OCC(=O)NC2CCN(C)CC2)c1,i,0.56
CNc1nc(-c2ccc3c(c2)CCN3C(=O)c2cccc(F)c2)cs1,i,0.03

(cont.)
SMILES,KCNQ2 block,KCNQ2 block baseline
CCN(CC)S(=O)(=O)c1ccc(Cl)nc1,i,0.56
COc1ccc2c(c1)SC1=NCCS(=O)(=O)N12,i,-0.62
COc1ccc(-c2cn[nH]c2C)cc1,i,3.1
COc1ccc(NC(=O)C2CCCN2C(=O)Oc2ccccc2)cc1 (stereo unspecified),i,-2.3
COc1ccc(-c2ccc(OC)c([C@H]3[C@@H]4C=CCC[C@@]4(C)C(=O)N3Cc3ccccc3)c2)cc1OC,i,-0.39
COc1cc(/C=N/NC(=O)/C(=C\c2ccc3c(c2)OCO3)NC(=O)c2ccccc2)ccc1O,i,-0.02
COC(=O)c1ccccc1NC(=O)N1CCN(c2ccc(OC)cc2)CC1,i,0.6
COc1ccc(C(CNC(=O)CSc2ccc(Br)cc2C)N2CCOCC2)cc1 (stereo unspecified),i,-1.9

More structures:
SMILES,KCNQ2 block,KCNQ2 block baseline
O=C(CCc1ccccc1)Nc1ccc(N2CCOCC2)c(Cl)c1,i,1.3
CCCCOc1ccc(C(=O)NCC2(c3ccc(OC)cc3)CCOCC2)cc1,i,0.06
OC(CN1CCN(c2cccc(Cl)c2)CC1)c1ccc(F)cc1 (stereo unspecified),i,0.05
CCOC(=O)c1cnn(CCOC(=O)c2ccccc2F)c1NC(=O)c1ccccc1F,i,1.2
CN1CCN(C(c2ccc(Br)cc2)c2cc(Cl)c3cccnc3c2O)CC1 (stereo unspecified),i,-1.2
COc1ccc(S(=O)(=O)N2CCCCCC2)cc1C(=O)NC1(C)CCS(=O)(=O)C1 (stereo unspecified),i,0.34
COc1ccccc1OCC(O)CNCc1ccc2c(c1)OCO2 (stereo unspecified),i,-0.24
CCCCN(c1ccccc1)S(=O)(=O)c1cccc2cccnc12,i,0.14

Continuation.
SMILES,KCNQ2 block,KCNQ2 block baseline
Fc1ccc(CN2CCN(C(=S)NCCc3ccccc3)CC2)c(Cl)c1,i,-0.3
CCN1C(=O)C2C(c3ccc(O)c(OC)c3)NC(C)(C(=O)OC)C2C1=O (stereo unspecified),i,-1.8
Cc1ccc(S(=O)(=O)NCc2ccc3[nH]c(C)cc3c2)cc1,i,-0.1
COc1cc(C(CC(=O)Nc2ccc(C)cn2)N2Cc3ccccc3C2=O)cc(OC)c1OC (stereo unspecified),i,-0.03
Cn1c(OCc2cccnc2)nc2c1c(=O)n(Cc1ccc(Cl)cc1)c(=O)n2C,i,0.61
CCN(CC)S(=O)(=O)c1ccc(N=Nc2c(N)[nH]c(=O)[nH]c2=O)cc1,i,0.36
O=C(C1CC(Cl)CN1S(=O)(=O)c1ccc(Cl)cc1)N1CCOCC1 (stereo unspecified),i,0.03
CN(C(=O)COC(=O)c1sc2ccccc2c1Cl)C1CCCCC1,i,1.1

(next part)
SMILES,KCNQ2 block,KCNQ2 block baseline
CCOc1cc(C(=O)Nc2cc(C)ccn2)cc(OCC)c1OCC,i,0.06
O=C(N/N=C/c1ccc2c(c1)OCO2)c1ccc2c(c1)OCCO2,i,-0.99
O=C(N/N=C/c1cc(Br)cc(Br)c1O)c1cccc(S(=O)(=O)N2CCOCC2)c1,i,1.5
COC(=O)c1cc(S(=O)(=O)N2CCN(c3ccc([N+](=O)[O-])cc3)CC2)c[nH]1,i,1.5
Nc1c(Cl)ncnc1NCC(O)CO (stereo unspecified),i,-1.2
CC(OC(=O)CCN1C(=O)C2CC=CCC2C1=O)C(=O)Nc1cccc(Cl)c1 (stereo unspecified),i,-1.6
CCOC(=O)N1CCN(c2c(NCCCN3CCCCCC3)c(=O)c2=O)CC1,i,1
COc1ccc(-c2nc3ccccn3c2NCc2ccc3c(c2)OCO3)cc1,-8.4*,0.18*

Additional structures follow:
SMILES,KCNQ2 block,KCNQ2 block baseline
Cc1c(N2C(=O)c3ccccc3C2=O)c(=O)n(-c2ccccc2)n1C,i,0.66
COc1ccccc1N1CCN(CCCCOc2c(OC)cccc2OC)CC1,i,-1.2
Cc1ccccc1CNC(=O)C1CCC(=O)N(CC2CCCCC2)C1 (stereo unspecified),i,-0.15
O=C(CN1C(=O)c2ccccc2C1=O)N1CCN(c2ccccc2)CC1,i,-0.14
C(=N\n1cnnc1)/c1ccc(N2CCOCC2)s1,i,-1.8
CC1Cc2ccccc2N1C1=CC(=O)CCC1 (stereo unspecified),i,-1.9
COCCCN(Cc1ccco1)C(=O)CSc1nc2ncccc2[nH]1,i,-2.6
CN1C(=O)Cc2cc(S(=O)(=O)NCCc3ccc(Cl)cc3)ccc21,i,-0.06

More records:
SMILES,KCNQ2 block,KCNQ2 block baseline
COCCOC(=O)c1nccnc1C(=O)Nc1ccc(S(=O)(=O)N2CCOCC2)cc1,i,-0.49
Cc1ccc(-n2c(C)cc(/C=N/NC(=O)c3ccc(CN4CCOCC4)cc3)c2C)cc1,i,-0.05
Cc1ccc(C2C(=O)N(C3CCC(C)CC3)CC(=O)N2C2CC2)cc1 (stereo unspecified),i,2
CN(CC(=O)O)S(=O)(=O)c1ccc(F)cc1,i,0.77
O=C(c1cccs1)n1nc(-c2cccnc2)nc1NCc1ccco1,i,-0.08
CCN(CC)S(=O)(=O)c1cccc(-c2nnc(SC(C)C#N)n2Cc2ccccc2)c1 (stereo unspecified),i,-1.1
CC1(C)Oc2ccc(C(=O)N3CCc4ccccc43)cc2N(CC(=O)N2CCCC2)C1=O,i,-1.3
Cn1c2[n+](c3ccc(Cl)cc3c1=O)Cc1ccccc1-2,i,0.18

Seven of the entries above in order of their number in KCNQ2 block baseline, low to high:
SMILES,KCNQ2 block,KCNQ2 block baseline
CC1(C)Oc2ccc(C(=O)N3CCc4ccccc43)cc2N(CC(=O)N2CCCC2)C1=O,i,-1.3
CCN(CC)S(=O)(=O)c1cccc(-c2nnc(SC(C)C#N)n2Cc2ccccc2)c1 (stereo unspecified),i,-1.1
O=C(c1cccs1)n1nc(-c2cccnc2)nc1NCc1ccco1,i,-0.08
Cc1ccc(-n2c(C)cc(/C=N/NC(=O)c3ccc(CN4CCOCC4)cc3)c2C)cc1,i,-0.05
Cn1c2[n+](c3ccc(Cl)cc3c1=O)Cc1ccccc1-2,i,0.18
CN(CC(=O)O)S(=O)(=O)c1ccc(F)cc1,i,0.77
Cc1ccc(C2C(=O)N(C3CCC(C)CC3)CC(=O)N2C2CC2)cc1 (stereo unspecified),i,2

Additional structures
SMILES,KCNQ2 block,KCNQ2 block baseline
COC(=O)C1CCN(C(=O)COC(=O)CC(NC(C)=O)c2ccccc2)CC1 (stereo unspecified),i,0.82
CC(C)c1ccc(NC(=O)CCNS(=O)(=O)c2cccc3nonc23)cc1,i,-1.7
O=C1/C(=C\c2cccnc2)Sc2ccccc21,i,0.86
Cc1ccc(OCC(=O)NC(=S)Nc2ccc(Br)cn2)cc1,i,-0.97
COc1ccc(C(C)NC(=O)Cc2ccc(Br)cc2)cc1 (stereo unspecified),i,0.43
Cc1cc(Cl)c2oc(C(=O)N(C)C(C)c3ccccn3)c(C)c2c1 (stereo unspecified),-5.8*,-2.1*
CC(C)[C@H](N)C(=O)N1CCC(C(=O)N[C@@H](Cc2ccccc2)C(=O)NCc2ccc(F)cc2)CC1,i,0.43
CS(=O)(=O)c1ccccc1-c1nnc(NC(=O)c2ccc3ncsc3c2)o1,i,2.6

Going on with the list.
SMILES,KCNQ2 block,KCNQ2 block baseline
CCCCOc1ccc(C2C(=O)N(C3CCCCC3)CC(=O)N2CC2CCCO2)cc1 (stereo unspecified),i,-0.47
COc1cc(C(=O)Nc2cnc(NC(=O)C(C)C)cc2C)cc(OC)c1OC,i,-0.68
O=C(CSc1n[nH]c(-c2ccccc2Br)n1)NC(=O)NCc1ccco1,i,0.68
CC(Nc1nc(-c2ccc(F)cc2)cs1)c1nc2cc(C(F)(F)F)ccc2n1CCCO (stereo unspecified),i,1.4
CC(=O)c1sc(NC(=O)C2CC(=O)N(Cc3ccccc3)C2)nc1-c1ccccc1 (stereo unspecified),i,-0.41
COc1ccc(Cn2c(CCC(=O)Nc3ccccc3)nc3cccnc32)cc1,i,-1.7
O=S(=O)(Nc1nnc(-c2ccccc2)s1)c1ccc(Cl)cc1,i,-0.41
CSc1nc(-c2ccccc2)nn1C(=O)c1ccc(C)cc1,i,0.82

The listing continues.
SMILES,KCNQ2 block,KCNQ2 block baseline
O=C1C2CCCN2C(c2cccs2)N1c1ccc(F)cc1 (stereo unspecified),i,0.39
COc1ccc(CCN(Cc2cc3ccc(C)cc3[nH]c2=O)C(C)=O)cc1OC,i,0.62
O=C(CN(Cc1ccccc1F)C(=O)c1csnn1)NCc1ccc2c(c1)OCO2,i,1.4
CCOC(=O)c1c(C)[nH]c(C(=O)OCC(=O)N2CCc3ccccc32)c1C,i,-2.3
O=c1oc(-c2cc3ccccc3o2)nc2sc3c(c12)CCCC3,i,0.66
COc1ccccc1NS(=O)(=O)N(C)C,i,0.28
CCc1cccc(NC(=O)C2CCCN(S(=O)(=O)c3ccc4[nH]c(=O)ccc4c3)C2)c1 (stereo unspecified),i,-1.6
Cc1cccc(N2CCN(CC(=O)NCc3ccccc3)CC2)c1C,i,0.34

Next structures:
SMILES,KCNQ2 block,KCNQ2 block baseline
O=C(CSc1ccc2c(c1)OCCO2)NCc1ccco1,i,-1.1
COCCn1c(SCC(=O)Nc2nnc(C)s2)nnc1-c1c[nH]c2ccccc12,i,0.34
Nc1nonc1C(=O)NCCNCc1c(OCc2ccccc2F)ccc2ccccc12,i,0.09
O=C1NC2(CCCCCC2)N=C1c1ccc(F)cc1,i,3.1
COC(=O)c1ccc(Cn2cc(C(F)(F)F)ccc2=O)cc1,i,-1.6
CC(C)=NOc1nc(N(C)C)nc(N(C)C)n1,i,-0.95
CCOc1ccc(-n2c(SCc3ccc([N+](=O)[O-])cc3)nnc2-c2ccccc2)cc1,i,0.39
Cc1c(C(=O)N2CCc3ccccc3C2)oc2ccccc12,i,-0.37

Only part of the results is shown. The share of hits here may be higher or lower than overall.
